# Screening data (PubChem BioAssay)
# Mtb H37Rv: M. tuberculosis H37Rv growth inhibitors, H37Rv strain (AID 1626); M. tuberculosis H37Rv growth inhibition; higher % means a stronger effect; inhibition, % at 10 µM; hits with a dose series show IC50 in µM; hit rate 0.95% among 220,000;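 active = confirmed in a dose series; inconclusive = inhibition above 80% but not taken into the dose series; inactive = below 80% or under 30% at every dose of the series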;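 also: bacteria incubated seven days before Alamar blue readout; 0% = bacteria only wells and 100% = bacteria with antibiotic wells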
# Arbovirus inh: blocks arbovirus infection. arbovirus infection cell-based antiviral screen. inhibition, % at 10 µM. hit rate 0.37% among 200,000. AID 1251;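 active = inhibition from about 30%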;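 also: bluetongue infection of BSR cells; cell survival read as ATP light after 72 h; 0% = infected wells without compound and 100% = uninfected wells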
# Mtb betalactam: beta-lactam sensitization of Mtb H37Rv | M. tuberculosis H37Rv growth with meropenem, percent inhibition; hits of this screen are not shown here | inhibition, % at 25 µM | hit rate 0.27% among 330,000;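 active = about 74% or more and at least 40 points above the plate without the antibiotic, then above 30% in a dose series; inconclusive = first-round hits that could not be retested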;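 also: growth measured after seven days incubation then overnight dye step; 0% = bacteria only wells and 100% = bacteria with antibiotic; twin plates without the antibiotic show which effects depend on it; some results filed as inactive read as strong as hits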
# RecA splice inh: Mtb RecA intein splicing inhibition. hit rate 0.75% among 290,000. cell-free RecA intein splicing, fluorescence. P9WHJ3. inhibition, %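 (about 9 µM by stock and volumes)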; in the data active = inhibition above about 30%; inconclusive = no clear call, values can overlap the other calls;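 also: 0% = vehicle wells and 100% = reference inhibitor control wells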
# Target sequence (P9WHJ3 whole entry, looked up, canonical isoform): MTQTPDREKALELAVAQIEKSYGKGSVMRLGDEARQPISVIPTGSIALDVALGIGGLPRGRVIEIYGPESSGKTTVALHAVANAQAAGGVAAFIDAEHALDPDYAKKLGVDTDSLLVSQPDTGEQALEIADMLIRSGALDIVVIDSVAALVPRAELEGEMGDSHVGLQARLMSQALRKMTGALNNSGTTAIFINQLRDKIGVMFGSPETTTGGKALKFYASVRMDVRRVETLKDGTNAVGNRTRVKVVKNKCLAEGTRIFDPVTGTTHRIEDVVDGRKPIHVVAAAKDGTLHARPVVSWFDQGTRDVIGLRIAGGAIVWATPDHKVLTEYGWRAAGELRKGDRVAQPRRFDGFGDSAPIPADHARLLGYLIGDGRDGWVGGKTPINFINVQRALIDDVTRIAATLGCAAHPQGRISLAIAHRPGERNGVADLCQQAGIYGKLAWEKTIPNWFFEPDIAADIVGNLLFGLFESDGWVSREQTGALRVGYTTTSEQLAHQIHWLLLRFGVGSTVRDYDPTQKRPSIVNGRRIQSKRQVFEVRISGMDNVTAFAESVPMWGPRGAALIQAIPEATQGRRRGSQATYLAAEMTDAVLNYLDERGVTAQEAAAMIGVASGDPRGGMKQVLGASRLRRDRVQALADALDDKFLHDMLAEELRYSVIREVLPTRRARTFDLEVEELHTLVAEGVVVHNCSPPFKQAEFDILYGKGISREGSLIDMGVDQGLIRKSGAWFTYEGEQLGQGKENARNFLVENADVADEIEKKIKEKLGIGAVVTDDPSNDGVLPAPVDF
# YopH PTP inh: YopH (Yersinia) phosphatase inhibition. fluorescence Ex485/Em525. inhibition, %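 (about 10 µM by stock and volumes)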. hit rate 0.16% among 140,000;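 active = inhibition of 50% or more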;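 also: controls were vehicle for no effect and minimum signal wells for full effect; inactives centre near -20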
# Arbovirus inh repeat: also measured in Arbovirus inh; calls as there; inhibition, %; measured here: 10K subset replicate screen; many hits read low in the repeat;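 first of two repeat runs on a subset; 0% = infected and 100% = uninfected wells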
# The depositor's hits bear a star; i = inactive; ? = inconclusive; nt = not tested or not shown.
SMILES,Mtb H37Rv,Arbovirus inh,Mtb betalactam,RecA splice inh,YopH PTP inh,others
Cn1nc(C(F)(F)F)c(-c2ccc(Br)cc2)c1NC(=O)c1nccnc1C(=O)O,-5%,nt,-5,0.4,nt,
CN(C)S(=O)(=O)c1ccc2c(c1)nc(CCC(=O)NCc1ccc(Cl)cc1)n2C,0%,3,-1,-2.6,nt,
O=C(O)/C=C\C(=O)Nc1ccc(F)c(F)c1F,-5%,nt,-13,-0.8,nt,
Cn1c2ccccc2c(=O)c2ccc(C#CC3(N)CCCCC3)cc21,nt,nt,98,i,nt,
CC1(C(=O)NCc2ccccc2)Oc2ccccc2NC1=O (centres undefined),3%,1,-1,1.4,-7,
Cn1c(CO)cnc1SCc1c(Cl)cccc1Cl,1%,-1,-3,1.6,-34,
COc1ccc(Nc2nnc(SCC(=O)/C=C3/N(C)c4ccccc4C3(C)C)s2)cc1,11%,24,73,3.2,22,
Cc1c(Cl)cccc1NC(=O)c1cc(-c2ccco2)on1,nt,nt,11,-1.4,nt,
CCOC(=O)c1c(C)n(Cc2ccco2)c2ccc(OC)cc12,-1%,-5,13,0.7,-2,Arbovirus inh repeat=-4
Cc1ccc(C(CC(=O)O)C2CCOC(C)(C)C2)cc1 (centres undefined),5%,3,5,-0.2,1,
NC(=O)C1CCN(C(=O)COc2cccc3ccccc23)CC1,-13%,2,3,-0.1,5,
NC(=O)c1ccc[n+](CC(=O)c2ccccc2)c1,1%,nt,-3,4.6,nt,

# Entries from the list above that have an aryl thioether with sulfur outside any ring (two):
SMILES,Mtb H37Rv,Arbovirus inh,Mtb betalactam,RecA splice inh,YopH PTP inh,others
Cn1c(CO)cnc1SCc1c(Cl)cccc1Cl,1%,-1,-3,1.6,-34,
COc1ccc(Nc2nnc(SCC(=O)/C=C3/N(C)c4ccccc4C3(C)C)s2)cc1,11%,24,73,3.2,22,

# The listing continues.
SMILES,Mtb H37Rv,Arbovirus inh,Mtb betalactam,RecA splice inh,YopH PTP inh,others
CC(C)Oc1ccc(S(=O)(=O)N2CCOCC2)cc1NC(=O)C1CSC2(C)CCC(=O)N12 (centres undefined),nt,nt,-3,-1.8,nt,
CC(C)c1nnc(N2C(=O)c3oc4ccccc4c(=O)c3C2c2ccco2)s1 (centres undefined),-6%,5,1,-2.4,12,
COc1ccc(-n2c(Cn3nnc4ccccc43)nnc2SCC(=O)O)cc1,-7%,4,-3,-3.2,-33,
CCn1nnnc1SCC(=O)N1CCCCC1,nt,nt,-12,2.1,nt,
COC(=O)c1c(C)[nH]c(C)c1-c1ccc([N+](=O)[O-])cc1,1%,-5,3,nt,nt,
COc1ccc(S(=O)(=O)N(C)c2ccc(C(=O)NCc3ccccn3)cc2)cc1,nt,nt,-13,-1.5,nt,
CCOc1ccccc1NC(=O)NC1CCCCCCC1,nt,nt,4,-3.6,nt,
O=C(NN=C1CCCC1)c1ccccc1OCc1ccc(Cl)cc1,62%,-5,7,6.3,nt,
CSc1nc2[nH]ncc2c(=O)n1-c1ccccc1,-3%,3,-8,2.1,-15,
CCCCN(CCCC)S(=O)(=O)c1ccc(NS(=O)(=O)c2ccc(NC(C)=O)cc2)cc1,-11%,-12,-6,nt,-14,
O=C(OCC#Cc1c(COC(=O)c2ccccc2)nnn1Cc1ccccc1)c1ccccc1,-1%,nt,-2,8.5,nt,
COc1cc(/C=N/NC(=O)CNC(=O)c2ccc3c(c2)OCCO3)ccc1O,-3%,-1,0,nt,2,

# Reprinted from the part before: two entries, followed by the next part.
SMILES,Mtb H37Rv,Arbovirus inh,Mtb betalactam,RecA splice inh,YopH PTP inh,others
O=C(OCC#Cc1c(COC(=O)c2ccccc2)nnn1Cc1ccccc1)c1ccccc1,-1%,nt,-2,8.5,nt,
COc1cc(/C=N/NC(=O)CNC(=O)c2ccc3c(c2)OCCO3)ccc1O,-3%,-1,0,nt,2,
Cc1ccc(S(=O)(=O)NC(=O)Nc2cc(C)ccc2F)cc1,-4%,2,-15,1.1,-35,
Cc1nn(C)c(C)c1S(=O)(=O)N1CCC(CO)(CC2CCCCO2)CC1 (centres undefined),1%,-2,-4,0.3,nt,
CS(=O)(=O)c1ccc2c(c1)sc1nc(=O)c(/C=C3/C=CC(=O)C(O)=C3)c(N)n12,0%,nt,4,-4.6,nt,
Cc1ccc(/C=N/n2nnnc2N)o1,-9%,3,-2,3.4,-13,
COc1ccc(CN(CC(=O)NCc2ccc(F)cc2)C(=O)CCC(=O)Nc2nccs2)cc1,nt,nt,-3,-0.7,nt,
C/C(=N\NC(=O)CSc1nc(C)[nH]c1[N+](=O)[O-])c1ccc(F)cc1,-7%,nt,-9,1.4,nt,
O=C(Nc1ccccc1-c1nc2ccccc2s1)c1cccnc1Cl,8%,-3,-3,-3.4,-40,
O=C(COc1ccc([N+](=O)[O-])cc1)Nc1ccccc1N1CCCC1,8%,2,1,-2.6,nt,
O=C(COc1cccc2ccccc12)N/N=C/c1ccncc1,79%,-2,88,0.9,nt,
CN1C(=O)N(c2ccccc2)C(Nc2nncs2)C1(C)C (centres undefined),-27%,2,6,4.7,-21,
COc1cc(C2NC(=O)c3ccccc3O2)ccc1OC(C)C (centres undefined),nt,nt,-3,0.6,nt,
O=C(c1ccc(Br)cc1)c1cc(-c2ccccn2)c(N2CCOCC2)s1,7%,-10,11,-9.9,-48,
Cc1ccc(C(=O)OC(C)C(=O)c2cc(C)c(C)cc2C)o1 (centres undefined),nt,nt,-2,2.3,nt,
O=[N+]([O-])c1ccc(N/N=C/c2ccc(O)c(O)c2O)c(S(=O)(=O)N2CCOCC2)c1,9%,-9,nt,nt,nt,
Cc1nc(-c2ccccc2)cc(N2CCCC2)n1,1%,9,-5,-1.8,-186,
CC(=O)Nc1ccc(OCc2cccc3ccccc23)cc1,nt,nt,0,-1.6,nt,
CN(C)CCc1nc2ccccc2c(=O)n1-c1ccccc1,3%,15,-5,-1.3,-30,
CNC(=O)c1nn(-c2ccc(Cl)cc2)ccc1=O,5%,4,-11,-1.5,-42,
COc1ccc(N2CCN(C3CC(=O)N(Cc4ccccc4)C3=O)CC2)cc1 (centres undefined),5%,-4,-12,3.8,nt,
COc1ccc(/C=N/Nc2nc(N3CCCC3)nc(N3CCCC3)n2)cc1,8%,12,-5,-2.2,-22,
COc1cc2c(cc1OC)C(c1cc(Br)c(OC)c(OC)c1)CC(=O)N2 (centres undefined),nt,nt,0,-3.2,nt,
CCn1c(COc2ccccc2OC)nc2ccccc21,nt,nt,-8,1.5,nt,
CCN(CC)C(=O)C1CCCN(C(=O)c2cc(COc3cccc(OC)c3)on2)C1 (centres undefined),nt,nt,-8,-0.7,nt,
CCOC(=O)c1cnc(-n2nc(C)cc2C)nc1N(CC)CC,3.8µM*,-24,86,-0.8,-31,
COc1ccc(-n2cc(C(=O)c3ccc4ccccc4c3O)cn2)cc1,6%,-7,-7,2.8,nt,
Cn1c(=O)c2c(ncn2CC(COCc2ccccc2Cl)OCc2ccccc2Cl)n(C)c1=O (centres undefined),-1%,17,-7,7.3,-3,
COc1ccc(NC(=O)c2ccco2)c(NC(=O)Cc2cccs2)c1,-8%,7,-11,0.8,-17,
COc1ccccc1C(=O)N/C(=C\c1cn(C)c2ccccc12)C(=O)N1CCCC1,nt,nt,10,0.4,nt,
CC(C)(C)OC(=O)N1CCC[C@H]1C(=O)Nc1ccc(S(=O)(=O)C(F)F)cc1,nt,nt,7,-0.2,nt,
O=C1CCc2cc(S(=O)(=O)Nc3ccccc3)cc3c2N1CC3,nt,nt,-8,-0.2,nt,
c1ccc(C(c2ccccc2)c2noc(CN3CCC(c4ccncc4)CC3)n2)cc1,-5%,4,-5,4.4,nt,
O=C(Nc1ccc(Cc2ccncc2)cc1)c1ccc(S(=O)(=O)N2CCCC2)cc1,7%,-18,nt,2.8,nt,
CCOc1ccc(/C(O)=C2/C(=O)C(=O)N(CC3CCCO3)C2c2cccs2)cc1 (centres undefined),-9%,4,90,1.8,-23,
CC1(C)CC(=O)C/C(=N/NC(=O)CCCOc2ccc(Cl)cc2Cl)C1,7%,-8,6,8.2,-7,
Clc1ccc(OCc2nc(-c3ccc(Br)o3)no2)cc1,22%,0,-1,2.2,-38,
Cc1c(CC(=O)Nc2ccc(Cl)cc2)sc2ccc(Cl)cc12,7%,nt,9,2.1,nt,
CCc1cccc2c(C(=O)COC(=O)c3nccnc3N)c[nH]c12,nt,nt,0,-1.2,nt,
c1ccc(CN2CCC(Nc3nc(-c4ccccc4)nc4ccccc34)CC2)cc1,?,-31,100,3.3,24,
Cn1cc(C(=O)N/N=C/C(Br)=C\c2ccccc2)ccc1=O,28%,0,nt,3.2,-20,
O=C(O)c1ccccc1Cc1nc2cc(Cl)ccc2c(=O)[nH]1,3%,10,-17,0.0,nt,
COc1cc(Br)cc(/C=N/c2ncn[nH]2)c1O,-9%,-3,13,0.3,-46,
Nc1nc2n(c1C(=O)c1ccccc1)CCC2,-5%,2,3,-0.8,-32,
CC(C)c1cc(C(=O)N/N=C/C(Br)=C/c2ccccc2)n[nH]1,nt,nt,22,4.3,nt,
O=C(COC(=O)c1ccccn1)NCc1ccccc1,5%,-2,-8,-0.4,-25,
O=C(CNC(=O)c1ccccc1Br)N/N=C/c1ccco1,nt,nt,1,-3.4,nt,
O=C(c1ccc(Oc2cc(Cl)cc(Cl)c2)o1)N1CCCCC1,7%,nt,0,3.2,nt,
Cc1nc(-c2ccccc2)sc1C1(C)CC(c2cccc([N+](=O)[O-])c2)=NO1 (centres undefined),-3%,nt,-5,3.0,nt,
CCCOc1ccc(C2CC(=O)NC2=O)cc1 (centres undefined),1%,-1,60,-2.4,nt,
Cc1ccn2nc(S(=O)(=O)Nc3c(F)cccc3F)nc2n1,-3%,2,100,-3.2,-30,
Cc1ccc(CNC(=O)c2ccc(N3CCCC3=O)cc2)cc1,-8%,4,-7,1.8,-46,
CCOc1ccccc1CN1CCC(Oc2cccc(C(=O)NCCOC)c2)CC1,nt,nt,-7,1.2,nt,
COc1cccc(-n2c(C)nn(C)c2=O)c1,-10%,8,1,-0.2,-36,
CCOC(=O)c1cc(-c2ccccc2)sc1NC(=O)CC(C)C,-2%,-12,-4,21,-26,
O=C1CC(c2ccccc2)CC(O)=C1C=Nc1ccccc1 (centres undefined),-4%,-5,3,-5.9,nt,
O=C1CN(C(=O)COC(=O)COc2ccc3c(c2)CCC3)c2ccccc2N1,-4%,-2,8,-0.2,-5,
Cc1ccc(C(=O)COC(=O)c2ccccc2N2C(=O)C3C4CCC(C4)C3C2=O)cc1C (centres undefined),-5%,0,-6,-1.2,-32,
Cc1cnc(C(=O)N2CCN(S(=O)(=O)c3ccc4ccccc4c3)CC2)cn1,1%,4,-3,-3.0,-37,
COc1ccc(Br)c(C(=O)NC2CCCC2)c1,3%,17,-1,-2.4,nt,
COc1ccccc1NC1=NCC(=O)N1Cc1ccccc1,8%,2,1,-0.8,-33,Arbovirus inh repeat=4
O=C(CNC(=O)c1ccccc1F)OC(C(=O)Nc1cc(C(F)(F)F)ccc1Cl)c1ccccc1 (centres undefined),-5%,5,-2,2.6,18,
# The results go on:
SMILES,Mtb H37Rv,Arbovirus inh,Mtb betalactam,RecA splice inh,YopH PTP inh,others
Cc1cc(NC(=O)c2cc3ncc(Br)cn3n2)no1,2%,1,-8,1.0,-21,
CC(=O)Nc1ccc(NC(=O)/C=C/c2ccc3c(c2)OCO3)cc1,7%,-14,2,-3.0,nt,
Cc1ccc(NC(=O)Nc2ccno2)cc1,-10%,nt,1,-0.5,nt,
O=C(NNc1cccc(Cl)n1)Nc1cccc(Cl)c1,7%,-1,9,0.4,-11,
CC(=O)c1ccccc1C(=O)N1CCCC(N2CCN(Cc3ccc4c(c3)OCO4)CC2)C1 (centres undefined),nt,nt,-3,0.7,nt,
COCCNc1nc(-c2ccc(OC)cc2)c(-c2ccc(OC)cc2)s1,16%,0,82,1.1,nt,
Cc1cc(C(=O)N/N=C/c2ccc(-c3cccc(Br)c3)o2)n[nH]1,2%,nt,-3,-2.3,nt,
CCOC(=O)Cc1csc(NC(=O)Nc2ccc(Cl)cc2)n1,-10%,nt,1,3.6,nt,
CCCC(c1nnnn1Cc1cccs1)N1CCN(c2ccc(OC)cc2)CC1 (centres undefined),9%,-3,1,3.2,-39,
CCc1c(C)nc(N2CCN(c3ccccc3)CC2)[nH]c1=O,nt,nt,7,-0.9,nt,
CC1CCCCC1NC(=O)C1CCCN(S(=O)(=O)c2ccc(-n3cnnn3)cc2)C1 (centres undefined),nt,nt,-4,0.6,nt,
O=C1c2ccccc2NC(c2ccccc2F)N1NS(=O)(=O)c1ccccc1 (centres undefined),nt,nt,6,-4.0,nt,
CC(=O)NNC(=O)c1sc(=S)n2c1[nH]c(=O)c1sccc12,-2%,-5,4,-37,nt,
CCC(C(=O)NC(C)(C)C)N(C(=O)Cn1nnc(-c2cccs2)n1)c1cnc2ccccc2c1 (centres undefined),0%,2,0,2.2,7,
CN(C=[N+](C)C)c1cccc2c1C(=O)c1ccccc1C2=O,4%,-2,-1,6.5,1,

# Some of the compounds tested (hit frequency here may not be typical).
